# Vif A3G: HIV-1 Vif–A3G interaction blockers – biochemical, TR-FRET, GST-Vif 1-94, biotin-A3G peptide, dose response retest, primary screen (AID 1117319); TR-FRET GST-Vif / biotin-A3G peptide binding; higher % means a stronger effect; test concentration not given here; strong numbers were not always called active; one-dose inhibition, %; IC50 in µM for titrated hits; 0.57% of 260,000 active;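 active = above the screen mean plus three standard deviations and confirmed in dose response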;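 also: Vif residues 1-94 fused to GST binding biotinylated APOBEC3G peptide 110-148; 0% = full assay without inhibitor and 100% = GST in place of GST-Vif; retest series ran down from 100 µM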
# rRNA inh HTS: inhibits bacterial ribosomal RNA function over humanized ribosomes. E. coli WT GFP vs humanized-ribosome RFP mutants, fluorescence, 24 h; stronger effect = lower value; DMSO median 0, no signal -100. GFP signal change (wild-type ribosome), % (concentration not given with the values). 1.6% of 350,000 active;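 active = significant combined selectivity score with lowered wild-type GFP, culture density cut under 30%, mutant RFP and density less affected; inactive = any of these conditions unmet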; also: one replicate is shown; some compounds called inactive have numbers as strong as hits
# MLL AF4-AF9 inh: blocks AF4 peptide binding to human AF9; P42568; AlphaScreen, biotin-AF4 peptide binding to FLAG-AF9; inhibition, % at 10 µM; 0.47% of 350,000 active; AID 651704;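 active = every replicate reaching a set inhibition limit, whatever the replicate mean, cut at about 25% in these data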;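 also: 0% = plate neutral control median and 100% = total signal loss; the record names both 10 and 1 µM as test concentration; the first replicate is given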
# Target sequence (P42568 whole entry, looked up): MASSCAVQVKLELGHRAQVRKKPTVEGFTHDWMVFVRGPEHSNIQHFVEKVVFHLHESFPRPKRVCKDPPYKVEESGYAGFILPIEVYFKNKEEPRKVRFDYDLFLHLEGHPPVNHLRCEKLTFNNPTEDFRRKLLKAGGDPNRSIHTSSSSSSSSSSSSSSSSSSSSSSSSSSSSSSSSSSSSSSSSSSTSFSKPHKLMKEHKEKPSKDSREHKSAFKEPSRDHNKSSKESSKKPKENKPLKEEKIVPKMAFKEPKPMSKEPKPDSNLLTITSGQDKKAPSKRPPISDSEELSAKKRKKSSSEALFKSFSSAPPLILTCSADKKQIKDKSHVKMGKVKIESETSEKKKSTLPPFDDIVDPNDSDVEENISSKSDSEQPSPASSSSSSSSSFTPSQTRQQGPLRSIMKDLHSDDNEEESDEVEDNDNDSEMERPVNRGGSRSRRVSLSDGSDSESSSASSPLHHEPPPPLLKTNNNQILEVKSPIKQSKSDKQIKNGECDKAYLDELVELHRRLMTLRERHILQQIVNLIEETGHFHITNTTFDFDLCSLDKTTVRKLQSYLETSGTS
# rRNA inh HTS OD600: second read-out of rRNA inh HTS, no call of its own (marks repeat the call); OD600 change, %; measured here: OD600 growth;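 optical density of the mix in the first replicate; 0 = DMSO median and -100 = no signal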
# rRNA inh HTS RFP: also measured in rRNA inh HTS; calls as there; RFP signal change, %; measured here: RFP humanized mutant strains;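 first replicate; 0 = DMSO median and -100 = no signal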
# An asterisk follows results filed as active; & = joins results of further samples. This is a subset, so the mix of outcomes need not match the whole.
# The first 3 compounds as a preview:
SMILES,Vif A3G,rRNA inh HTS,rRNA inh HTS OD600,rRNA inh HTS RFP,MLL AF4-AF9 inh
N#Cc1ccc(C(=O)OCC(=O)N2CCCCCC2)cc1,9%,0,2,-2.5,-2.5
Cn1c(=O)c2[nH]c(CCc3ccncc3)nc2n(C)c1=O,-9%,7,14,-1.9,2.4
COCCNc1nnc(SCC(=O)NC(=O)c2ccc(Cl)cc2)s1,-5%,-2,4,-3.7,-0.6

# All compounds of this part, from the first entry:
SMILES,Vif A3G,rRNA inh HTS,rRNA inh HTS OD600,rRNA inh HTS RFP,MLL AF4-AF9 inh
N#Cc1ccc(C(=O)OCC(=O)N2CCCCCC2)cc1,9%,0,2,-2.5,-2.5
Cn1c(=O)c2[nH]c(CCc3ccncc3)nc2n(C)c1=O,-9%,7,14,-1.9,2.4
COCCNc1nnc(SCC(=O)NC(=O)c2ccc(Cl)cc2)s1,-5%,-2,4,-3.7,-0.6
COc1cc(NC(=O)C2CCN(S(=O)(=O)c3cccs3)CC2)c(C(=O)O)cc1OC,3%,-4,2,0.2,-9.1
Brc1cc2c(cc1C1OCCO1)OCO2,-6%,14,15,0.7,3.1
O=C(NN=Cc1ccc(Cl)cc1Cl)c1ccccc1,0%,-5,17,2.3,-3.0
Cc1ccc(N2CC(C(=O)Nc3cccc(S(=O)(=O)N4CCOCC4)c3)CC2=O)cc1 (configuration not stated),-1%,1,14,1.8,-3.3
CS(=O)(=O)c1ccc(C(=O)Nc2nc(-c3ccco3)c(-c3ccco3)s2)cc1,22µM*,-19*,4.1*,-2.4*,4.2
O=C(O)C(CCc1ccccn1)c1ccccc1 (configuration not stated),2%,16,24,-3.5,0.1
CCNC(=O)c1cccc(NC(=O)c2cc(C3CC3)nc3c2cnn3C(C)C)c1,-2%,0,0,-3.0,-3.4
CCCCN(C(=O)CSCc1ccc(C)cc1)c1c(N)n(Cc2ccccc2)c(=O)[nH]c1=O,0%,7,9,-1.8,-0.9
Cc1cnc(NC(=O)CC2OC(=O)c3ccccc32)s1 (configuration not stated),0%,0,1,-1.5,3.6
CC(=O)C1CCC2C3CC=C4CC(SC(=N)N)CCC4(C)C3CCC12C (configuration not stated),-7%,-63,-81,-18,11
COc1ccc(C2CCc3cc4c(cc3C2=NO)OCO4)cc1OC (configuration not stated),-2%,-46,-71,-12,11
c1ccc(C(Nc2cccnc2)c2ccccc2)cc1,1%,-30,-52,2.2,-0.1
CC1=C(C(=O)N(C)C)CC(CC(=O)NCC2CCCCC2)C(=O)N1CCCN1CCCC1=O (configuration not stated),-2%,5,2,-0.5,0.4
CC1(C)CCC(=O)c2ccccc21,54%,11,17,2.8,1.0
Cc1ccc([C@H]2C[C@H](n3cc(C4CC4)nn3)[C@@H](O)CN2Cc2cccs2)cc1,-1%,-12,-44,-3.5,1.9
O=C(Nc1ccc(Cl)cc1F)C1CC(=O)N(Cc2ccco2)C1 (configuration not stated),10%,11,9,2.3,-0.3
COc1ccc(S(=O)(=O)N2CCOCC2)cc1NC(=O)/C=C/c1ccc(F)cc1,-9%,1,-5,0.5,3.1
Oc1cccc(C=NNc2ccccn2)c1,2%,18,7,0.3,4.8
O=[N+]([O-])c1ccccc1CCc1ccccc1[N+](=O)[O-],9%,3,5,-1.1,0.3
CC1(C)CC(=O)C=C(c2ccc(Oc3ccccc3)cc2)C1=O,1%,-10,-25,-4.9,15
COc1ccc(N2CCN(C(=O)COC(=O)[C@@H](NC(=O)c3ccccc3Cl)C(C)C)CC2)cc1,8%,5,4,-0.9,0.7

# Taken from above.
# Result for `COc1ccc(N2CCN(C(=O)COC(=O)[C@@H](NC(=O)c3ccccc3Cl)C(C)C)CC2)cc1` under Vif A3G: 8%
# Result for `COc1ccc(C2CCc3cc4c(cc3C2=NO)OCO4)cc1OC` (configuration not stated) under rRNA inh HTS OD600: -71
# Result for `COc1ccc(S(=O)(=O)N2CCOCC2)cc1NC(=O)/C=C/c1ccc(F)cc1` under rRNA inh HTS OD600: -5
# Result for `O=[N+]([O-])c1ccccc1CCc1ccccc1[N+](=O)[O-]` under rRNA inh HTS OD600: 5
# Result for `CC1(C)CC(=O)C=C(c2ccc(Oc3ccccc3)cc2)C1=O` under rRNA inh HTS: -10
# Result for `c1ccc(C(Nc2cccnc2)c2ccccc2)cc1` under Vif A3G: 1%

# Single records, from the list above. Screens in order: Vif A3G	rRNA inh HTS	rRNA inh HTS OD600	rRNA inh HTS RFP	MLL AF4-AF9 inh
# Results for O=[N+]([O-])c1ccccc1CCc1ccccc1[N+](=O)[O-] : 9%	3	5	-1.1	0.3
# Results for c1ccc(C(Nc2cccnc2)c2ccccc2)cc1 : 1%	-30	-52	2.2	-0.1
# Results for O=C(Nc1ccc(Cl)cc1F)C1CC(=O)N(Cc2ccco2)C1 (configuration not stated) : 10%	11	9	2.3	-0.3
# Results for CC1(C)CC(=O)C=C(c2ccc(Oc3ccccc3)cc2)C1=O : 1%	-10	-25	-4.9	15

# (further entries)
SMILES,Vif A3G,rRNA inh HTS,rRNA inh HTS OD600,rRNA inh HTS RFP,MLL AF4-AF9 inh
Cc1cn([C@H]2C[C@H](O)[C@@H](CNC(=O)[C@@H]3C[C@H](F)CN3)O2)c(=O)[nH]c1=O,-1%,3,6,-9.0,-0.5
COc1cc(CNC[C@H]2O[C@@H](n3cnc(C(N)=O)n3)[C@H](O)[C@@H]2O)ccc1OCc1cccc(Cl)c1,0%,5,5,4.6,6.1
Cc1ccc(S(=O)(=O)N2CCOCC2)cc1C(=O)OCC(=O)NC1CCCCC1,5%,7,11,1.2,-5.8
C=CCNc1cc(F)ccc1S(=O)(=O)NCC=C,-3%,-6,-8,-1.4,-0.3
CC(CN1CCN(CCOCCO)CC1)CN1c2ccccc2Sc2ccc(Cl)cc21 (configuration not stated),0%,-53,-80,-19,20
C[C@@H]1CCCCO[C@@H](CN(C)Cc2ccccc2)[C@@H](C)CN([C@H](C)CO)C(=O)c2cc(NC(=O)Nc3cccc4ccccc34)ccc2O1,-15%,10&3,9&3,5.4&-1.2,-14&-5.0
CCC(Cc1ccccc1)OC(=O)c1ccccc1C(=O)O (configuration not stated),6%,0,4,0.3,-4.5
Cc1nc(N2CCCCC2)[nH]c(=O)c1CN(C)N=O,3%,5,8,1.8,-2.1
Cn1c(N=Cc2ccc([N+](=O)[O-])cc2)c(N)c(=O)n(C)c1=O,4%,4,17,0.8,-1.1
OCC(O)C1OC(Oc2ccccc2)C(O)C(O)C1O (configuration not stated),0%,10,11,0.7,-1.9
Cc1cc(C)c(OCC(=O)Nc2nnc(C3CC3)s2)c(C)c1,9%,6,19,-1.5,3.7
COc1ccc(C(CNC(=O)c2cccc(S(=O)(=O)Nc3ccccc3OC)c2)N2CCCCC2)cc1 (configuration not stated),-12%,-3,-13,1.4,-44
CCN(CC)S(=O)(=O)c1cccc(NC(=O)CN2C(=O)NC3(CCC(C)CC3)C2=O)c1 (configuration not stated),-4%,-2,8,0.4,-16
Nc1cc2c(cc1Cl)-c1ccccc1C2,-7%,-25,-28,-3.4,50*
CCOc1ccc(C(=O)CN2C(=O)NC3(CCCc4ccccc43)C2=O)cc1 (configuration not stated),-7%,-13,-29,-0.1,-0.1
O=C(CCN1C(=O)/C(=C\c2ccccc2F)SC1=S)N1CCOCC1,1%,-10,-16,-1.6,3.1
Cc1nc(SCC(=O)N(CC(C)C)C2CCS(=O)(=O)C2)c(C#N)c(C)c1C (configuration not stated),-5%,6,-3,1.9,-1.0
CCC(C)c1ccccc1NC(=O)COc1ccc(-c2nnco2)cc1 (configuration not stated),2%,-7,0,2.8,11
C[C@H]1CN([C@@H](C)CO)C(=O)c2cc(Br)cnc2O[C@@H]1CN(C)C(=O)CN(C)C,-2%,3&6,16&5,-1.4&-3.9,1.2&-3.9
Sc1ccccc1N=Cc1cccs1,-11%,-6,5,-0.3,-4.9
O=S(=O)(Cc1ccc(Cl)cc1Cl)c1ccc(Cl)cc1,0%,-11,-12,-5.0,-0.3
O=C1Nc2ccccc2Cc2ccccc21,-11%,5,8,-1.6,0.9
COc1ccc(C(=O)Nc2cccc(C)n2)cc1S(=O)(=O)N1CCCc2ccccc21,11%,-15,-27,-1.3,2.9
COc1cccc(S(=O)(=O)N(C)C[C@@H]2OCc3cnnn3CCCC(=O)N([C@@H](C)CO)C[C@H]2C)c1,-1%,-2&-2,-2&-6,-1.4&-1.5,-0.4&-0.1
O=C(NN=Cc1ccccc1Cl)c1ccccc1,-6%,4,16,0.7,2.1
CC(=O)Nc1cc([N+](=O)[O-])ccc1OCc1ccccc1,-10%,-20,30,7.1,-1.6
CC[C@]12c3[nH]c4ccc(Cl)cc4c3CCN1C(=O)[C@@H](CC(=O)NCc1ccc(OC)c(OC)c1)C[C@@H]2C(=O)N1CCN(C(=O)c2ccco2)CC1,-7%,1,2,4.5,-0.6
CCOC(=O)C1=C(COC(=O)c2nc(Cl)ccc2Cl)NC(=O)NC1C (configuration not stated),-7%,-2,-2,-1.3,-4.4
COc1ccc(NC(=O)COC(=O)CN2C(=O)c3ccccc3C2=O)cc1,-7%,3,2,-2.2,-1.8
CN/N=C(\Cc1nc2ccccc2[nH]1)c1ccc([N+](=O)[O-])cc1,16%,-22*,-12*,-1.8*,8.0
CC(C)c1ccc(COC(=O)CN2C(=O)NC3(CCCCC3C)C2=O)cc1 (configuration not stated),-3%,0,-7,-3.4,2.5
Cc1occc1-c1nnc(SCC(=O)N2CCCC(C)C2)o1 (configuration not stated),-14%,-3,2,-0.1,0.2
Cc1ccc(S(=O)(=O)Nc2cccc(S(=O)(=O)N3CCCC3)c2)cc1C,-6%,-2,-16,-3.0,-0.6
CC(C)c1ccc(C(=O)Nc2ccc(S(=O)(=O)NC3=NCCCCC3)cc2)cc1,-7%,-7,-43,-0.7,4.2
COc1cccc(C(=O)c2ccncc2C(=O)O)c1OC,-1%,11,5,-1.0,-0.9
O=C1CCCCC1C(O)(C(=O)c1ccccc1)c1ccccc1 (configuration not stated),-4%,-18,-62,4.3,-2.6
COc1ccc(C(=O)NCCCN2CCCC2=O)cc1S(=O)(=O)N1CCOCC1,-2%,1,-2,-0.9,-2.7
Cn1cc(CN2CCC(n3nccc3NC(=O)c3ccc4c(c3)OCO4)CC2)cn1,-3%,7,9,-4.1,3.2
COc1ccc(-c2c(C)cc3oc(=O)cc(-c4ccccc4)c3c2C)cc1F,0%,4,10,3.5,2.5
CCn1c(CN2CCCCC2)nc2cc(S(=O)(=O)N3CCCCC3)ccc21,-13%,-3,-9,-1.2,2.7
COc1ccc(C2=CC(=O)C[C@H](COCc3ccccc3)N(C(=O)OC(C)(C)C)O2)cc1,-2%,3,-4,1.3,3.7
Nc1nonc1-n1nnc(C(=O)N/N=C/c2ccco2)c1CSc1ccc(Cl)cc1,-9%,-7,-16,-1.2,-1.6
COc1cc2ccc(NC(C)=O)cc2cc1OC,13%,1,7,0.6,-2.5
CC(=O)NC(c1ccc(N(C)C)cc1)c1cc(Cl)c2cccnc2c1O (configuration not stated),10%,-37,-61,-14,0.9
Cc1ccc(NC(=O)CN(C)CC(=O)Nc2ccc3c(c2)OCO3)cc1,1%,-8,-21,-1.9,-0.2
CCN(CC)C(=O)C1=C(C)N(Cc2ccc(F)cc2)C(=O)C(CC(=O)NCc2cccs2)C1 (configuration not stated),-7%,10,8,4.3,1.1
Cc1nc2ccccc2c(C(=O)O)c1-c1ccccn1,-5%,16,19,0.1,0.1
CN1C(=O)[C@H]2[C@@H](c3ccccc3)N[C@]3(CCCN(Cc4ccc(F)cc4)C3=O)[C@H]2C1=O,3%,3,9,-2.7,0.1
C=CCn1c(O)c(N=Nc2ccccc2[N+](=O)[O-])c2ccccc21,0%,5,9,-0.5,1.1
O=C(Cc1cccs1)Nc1ccc(Cl)c(S(=O)(=O)N2CCOCC2)c1,3%,-10,-15,3.3,2.2
CCN(C(=O)CSc1nnnn1C)C1CCS(=O)(=O)C1 (configuration not stated),-8%,3,9,-1.0,0.4
CN(C)Cc1cc(C(C)(C)C)cc(N2CCOCC2)c1O,5%,0,7,2.1,4.6
OC(CNCCc1ccc(Cl)cc1)COc1ccc2ccccc2c1 (configuration not stated),12%,-57,-71,-15,0.4
O=C1[C@H]2[C@@H](c3ccccc3)N[C@]3(CCCN(Cc4ccc(Cl)cc4)C3=O)[C@H]2C(=O)N1Cc1ccccc1,1%,-4,-18,7.4,3.8
Cc1nnc(SCC(=O)NC2(C#N)CCCCC2)n1N,3%,18,17,1.4,2.5
CCOc1ccccc1Nc1nc(N)nc(Cl)c1CC,3%,0,5,0.0,-1.3
Cc1ccc(NC(=O)NC2OC(=O)c3ccccc32)cc1 (configuration not stated),-12%,14,5,-3.3,-3.8
COc1ccc(C(=O)Nc2ccc(N3CCOCC3)cc2)cc1S(=O)(=O)N1CCCC1,2%,-5,-2,0.4,8.2
O=C(O)c1ccccc1NN=Cc1ccccc1,-3%,-12,-14,4.0,1.9
COC(=O)[C@H]1C[C@H](OC(=O)Nc2cccs2)[C@@]2(O)CN(S(=O)(=O)c3ccc(C)cc3)CC2[C@H]1C(=O)OC (some centres not stated),-3%,-5,7,8.8,0.5

# Screens (PubChem)
